Mtb growth: M. tuberculosis H37Rv growth inhibitors, H37Rv strain (AID 1626); M. tuberculosis H37Rv growth inhibition; higher % means a stronger effect; inhibition, % at 10 µM, or IC50 in µM where a hit was titrated; 0.95% of 220,000 active;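 active = confirmed in a dose series; inconclusive = inhibition above 80% but not taken into the dose series; inactive = below 80% or under 30% at every dose of the series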;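 also: bacteria incubated seven days before Alamar blue readout; 0% = bacteria only wells and 100% = bacteria with antibiotic wells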
YopH inh: YopH tyrosine phosphatase inhibitors, primary screen, biochemical, fluorescence Ex485/Em525 | AID 898, 2007 | inhibition, %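 (about 10 µM by stock and volumes)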 | 0.16% of 140,000 active;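 active = inhibition of 50% or more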;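 also: controls were vehicle for no effect and minimum signal wells for full effect; inactives centre near -20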
Arbovirus inh: antivirals against arbovirus infection, primary screen, cell-based, full library, 10K replicate subset | inhibition, % at 10 µM | AID 1251, 2008 | arbovirus infection cell-based antiviral screen | 0.37% of 200,000 active;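 active = inhibition from about 30%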;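 also: bluetongue infection of BSR cells; cell survival read as ATP light after 72 h; 0% = infected wells without compound and 100% = uninfected wells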
RecA splice inh: Mtb RecA intein splicing inhibitors, primary screen, biochemical, fluorescence, HTS; cell-free RecA intein splicing; inhibition, %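 (about 9 µM by stock and volumes)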; 0.75% of 290,000 active; Protein RecA (Mycobacterium tuberculosis (strain ATCC 25618 / H37Rv)), P9WHJ3; in the data active = inhibition above about 30%; inconclusive = no clear call, values can overlap the other calls;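 also: 0% = vehicle wells and 100% = reference inhibitor control wells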
Target sequence (P9WHJ3 whole entry, looked up, canonical isoform): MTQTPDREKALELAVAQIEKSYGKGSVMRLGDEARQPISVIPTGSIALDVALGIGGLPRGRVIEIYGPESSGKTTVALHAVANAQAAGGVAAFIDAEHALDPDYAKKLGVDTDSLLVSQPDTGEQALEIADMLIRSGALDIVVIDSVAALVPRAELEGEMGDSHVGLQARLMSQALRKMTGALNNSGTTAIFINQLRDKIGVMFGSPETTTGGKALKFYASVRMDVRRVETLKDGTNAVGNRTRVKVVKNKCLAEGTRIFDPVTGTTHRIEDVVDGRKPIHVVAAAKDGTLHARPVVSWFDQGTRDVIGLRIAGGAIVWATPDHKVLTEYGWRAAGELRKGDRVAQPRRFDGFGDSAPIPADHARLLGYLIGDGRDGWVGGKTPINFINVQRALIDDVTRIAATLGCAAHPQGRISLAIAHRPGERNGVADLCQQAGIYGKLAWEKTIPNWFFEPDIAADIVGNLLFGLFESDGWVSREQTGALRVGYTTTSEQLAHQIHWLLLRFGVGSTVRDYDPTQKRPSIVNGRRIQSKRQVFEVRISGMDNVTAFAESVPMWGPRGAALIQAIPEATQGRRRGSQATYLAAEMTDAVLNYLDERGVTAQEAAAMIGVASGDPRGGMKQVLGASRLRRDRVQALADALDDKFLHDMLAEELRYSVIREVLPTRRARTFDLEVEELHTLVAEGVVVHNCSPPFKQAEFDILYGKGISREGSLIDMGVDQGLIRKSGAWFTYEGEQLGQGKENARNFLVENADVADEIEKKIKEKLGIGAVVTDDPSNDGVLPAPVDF
Mtb betalactam: beta-lactam sensitization of Mtb H37Rv, H37Rv. M. tuberculosis H37Rv growth with meropenem, percent inhibition; hits of this screen are not shown here. inhibition, % at 25 µM. 0.27% of 330,000 active. AID 434955, 2010;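 active = about 74% or more and at least 40 points above the plate without the antibiotic, then above 30% in a dose series; inconclusive = first-round hits that could not be retested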;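 also: growth measured after seven days incubation then overnight dye step; 0% = bacteria only wells and 100% = bacteria with antibiotic; twin plates without the antibiotic show which effects depend on it; some results filed as inactive read as strong as hits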
Arbovirus inh repeat: also measured in Arbovirus inh; calls as there; inhibition, %; measured here: 10K subset replicate screen; many hits read low in the repeat;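 first of two repeat runs on a subset; 0% = infected and 100% = uninfected wells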
* marks the source's active call; other numbers are inactive results. Some of the compounds tested; the hit share may differ from the screen's.

COC(=O)C1CCN(S(=O)(=O)c2ccc(OC)cc2)CC1 was read as Mtb growth -10%, YopH inh 7, Arbovirus inh 4, RecA splice inh -0.7 and Mtb betalactam -5.
COc1ccc(NC(=O)CSc2nnc(Cc3cccn3C)n2CCc2ccccc2)cc1OC was read as Mtb growth 4%, YopH inh -41, Arbovirus inh 0, RecA splice inh -3.1 and Mtb betalactam -4.
COc1ccccc1CNC(=O)CSc1ccc(C)cc1 was read as Mtb growth 0%, YopH inh -8, Arbovirus inh -11, RecA splice inh 2.2 and Mtb betalactam 7.
For O=C(Oc1ccccc1C(=O)Oc1ccccc1)c1ccco1 the results were Mtb growth 39%, YopH inh -33, Arbovirus inh 7, RecA splice inh 13 and Mtb betalactam 97.
`CCOC(=O)C1CCN(C(c2cc3ccc(C)cc3[nH]c2=O)c2nnnn2C2CCCCC2)CC1` (stereo not given) gave Mtb growth 36%, YopH inh -26, Arbovirus inh 1, RecA splice inh -4.7 and Mtb betalactam 38.
`CCCC1=C(C(=O)OCC)C(c2ccccc2OCC)NC(=O)N1C` (stereo not given) gave Mtb growth 2%, YopH inh -27, Arbovirus inh 1, RecA splice inh -2.2 and Mtb betalactam 2.
For CC1=CC(=O)O[C@@H]1[C@@]1(C)C[C@H]2OC(=O)C[C@H]3[C@@H](C)C(=O)C(O)=C1[C@@]23CO the results were RecA splice inh 2.6 and Mtb betalactam -7.
c1ccc(-n2c(SCC3CCCCO3)nnc2-c2cccs2)cc1 (stereo not given) was read as Mtb growth -3%, YopH inh -38, Arbovirus inh 9, RecA splice inh -0.2 and Mtb betalactam 10.
`CCN(CC)C(=O)CSc1nc2sc3c(c2c(=O)n1CCCOC)CCC3` gave RecA splice inh -4.8 and Mtb betalactam 7.
`O=C(Cn1c(C(F)(F)F)nc2ccccc21)c1ccc(F)cc1` gave YopH inh -88, Arbovirus inh 6, RecA splice inh -1.5 and Mtb betalactam -13.
`O=C(NCC(c1ccco1)N1CCc2ccccc2C1)c1ccc(Cl)c([N+](=O)[O-])c1` (stereo not given) gave RecA splice inh 10 and Mtb betalactam -4.
For CSc1ccc(Cl)c(C(=O)Nc2ccc(C)cn2)c1 the results were Mtb growth 1%, Arbovirus inh -11, RecA splice inh 3.0 and Mtb betalactam 7.
CCc1ccc(/C=N/NC(=S)NCCc2ccccc2)cc1 was read as Mtb growth 2%, YopH inh -23, Arbovirus inh 8, RecA splice inh 0.6 and Mtb betalactam 60.
For CCN(CC)C(=O)C1=C(C)Nc2nc3ccccc3n2C1c1cccc(OC)c1 (stereo not given) the results were Mtb growth -5%, YopH inh 5, Arbovirus inh -3, RecA splice inh -0.7 and Mtb betalactam 5.
COc1ccc(OC)c(/C=N/NC(=O)c2cc[n+](Cc3ccccc3)cc2)c1 was read as Mtb growth -10%, YopH inh -10, Arbovirus inh -6, RecA splice inh -7.8 and Mtb betalactam 69.
CCOC(=O)c1cnc2c(C)cccc2c1Nc1ccc(N2CCOCC2)cc1 was read as Mtb growth 72%, YopH inh -28, Arbovirus inh -8, RecA splice inh 3.5 and Mtb betalactam 63.
Screening COC(c1ccccc1)c1nnc(CCC(=O)NC2C3CC4CC(C3)CC2C4)o1 (stereo not given) returned Mtb growth 2%, Arbovirus inh -1, RecA splice inh 3.6 and Mtb betalactam -4.
Screening CCCCCCCOC(=O)C1=C(C)Nc2ncnn2C1c1cccs1 (stereo not given) returned Mtb growth -7%, YopH inh 9, Arbovirus inh -25, RecA splice inh 3.1 and Mtb betalactam 1.
For Cc1ccc(S(=O)(=O)NC2(C(F)(F)F)NC(=O)N(Cc3ccccc3)C2=O)cc1 (stereo not given) the results were RecA splice inh -0.6 and Mtb betalactam -6.
For COc1ccc(C(=O)OCC(=O)NC(C)CCc2ccccc2)c(OC)c1 (stereo not given) the results were RecA splice inh 2.2 and Mtb betalactam -1.

Reprinted from the part before: 2 entries, followed by the next part.
For Cc1ccc(S(=O)(=O)NC2(C(F)(F)F)NC(=O)N(Cc3ccccc3)C2=O)cc1 (stereo not given) the results were RecA splice inh -0.6 and Mtb betalactam -6.
For COc1ccc(C(=O)OCC(=O)NC(C)CCc2ccccc2)c(OC)c1 (stereo not given) the results were RecA splice inh 2.2 and Mtb betalactam -1.
Screening O=C(O)C1CC=CCC1C(=O)NNc1c(Cl)cc(Cl)cc1Cl (stereo not given) returned Mtb growth 2%, Arbovirus inh 5 and Mtb betalactam 44.
`S=C(NCc1ccccc1)NCC1COc2ccccc2O1` (stereo not given) gave Mtb growth 7%, YopH inh -21, Arbovirus inh 18, RecA splice inh 4.0 and Mtb betalactam 10.
`COC(=O)c1sc(S(=O)(=O)N2CCCCC2)c(C(=O)OC)c1C` gave Mtb growth 4%, YopH inh -41, Arbovirus inh -9, RecA splice inh 0.6 and Mtb betalactam inconclusive.
Screening Cc1c(Cl)ccc2sc(NC(=O)c3ccco3)nc12 returned RecA splice inh 1.5 and Mtb betalactam 1.
Cc1cc(-c2ccccc2)nn1-c1nc2c(c(=O)[nH]c(=O)n2C)n1C was read as YopH inh -1, Arbovirus inh 4, RecA splice inh -1.7 and Mtb betalactam 0.
For CCOc1ccc(CCNC(=O)c2ccc3nc(N4CCOCC4)sc3c2)cc1OCC the results were Mtb growth -1%, RecA splice inh 0.5 and Mtb betalactam -5.
`COc1cccc(CC(=O)OCC(=O)NNC(=O)c2ccc([N+](=O)[O-])cc2)c1` gave RecA splice inh 0.0 and Mtb betalactam -16.
`CC12CN3CC(C)(CN(C1)C3c1ccc([N+](=O)[O-])o1)C2=O` (stereo not given) gave Mtb growth -7%, Arbovirus inh 5, RecA splice inh 2.4 and Mtb betalactam 47.
`CCn1c(SCC(=O)Nc2nc3ccc(OC)cc3s2)nnc1-c1ccoc1C` gave Mtb growth -13%, YopH inh -30, Arbovirus inh 14 and Mtb betalactam 1.
`O=C(NCCCN1CCOCC1)c1ccc(CS(=O)(=O)c2ccc(Br)cc2)o1` gave Mtb growth -1%, YopH inh -44, Arbovirus inh -6, RecA splice inh -1.0, Mtb betalactam 6 and Arbovirus inh repeat -4.
`COc1ccc(C2=NN(C(=O)c3cccs3)C(c3ccc(OC)cc3)C2)cc1` (stereo not given) gave Mtb growth 29%, YopH inh -6, Arbovirus inh -3, RecA splice inh 26 and Mtb betalactam 12.
Screening S=C(NCC1CCCO1)N1CCc2ccccc2C1 (stereo not given) returned RecA splice inh 0.9 and Mtb betalactam 7.
Screening COC(=O)c1[nH]c2ccccc2c1NC(=O)C(C)N1CC(C)OC(C)C1 (stereo not given) returned Mtb growth -2%, RecA splice inh -1.4 and Mtb betalactam -2.
`COc1cccc(CN2CC(C(=O)NC3CCCCCC3)CCC2=O)c1` (stereo not given) gave RecA splice inh 4.0 and Mtb betalactam -1.
For COc1ccc(Oc2ccc(C(F)(F)F)cc2NC(=O)c2ccc(OC)cc2)cc1 the results were Mtb growth 5%, RecA splice inh 8.9 and Mtb betalactam 8.
For COc1cc(C2C3=C(CCCC3=O)OC3=C2C(=O)CCC3)ccc1OCC(=O)Nc1ccccc1 the results were RecA splice inh 1.1 and Mtb betalactam 0.
`NC(=O)NCC12CC3CC(CC(C3)C1)C2` gave Mtb growth 3%, YopH inh -36, Arbovirus inh 3, RecA splice inh 1.5 and Mtb betalactam 5.
CC(=O)Nc1ccc(NC(=O)CSc2nc3ccccc3nc2N2CCCCC2)cc1 was read as RecA splice inh -4.9 and Mtb betalactam 1.
COc1ccc(CC(=O)Nc2c(C(N)=O)oc3ccccc23)cc1OC was read as RecA splice inh -6.1 and Mtb betalactam 0.
Cc1cc(C)n2nc(C(=O)OCC(=O)NC3CCCCC3)nc2n1 was read as RecA splice inh -0.7 and Mtb betalactam 0.

Brought forward from above: 6 compounds, followed by the next part.
For COc1ccc(Oc2ccc(C(F)(F)F)cc2NC(=O)c2ccc(OC)cc2)cc1 the results were Mtb growth 5%, RecA splice inh 8.9 and Mtb betalactam 8.
For COc1cc(C2C3=C(CCCC3=O)OC3=C2C(=O)CCC3)ccc1OCC(=O)Nc1ccccc1 the results were RecA splice inh 1.1 and Mtb betalactam 0.
`NC(=O)NCC12CC3CC(CC(C3)C1)C2` gave Mtb growth 3%, YopH inh -36, Arbovirus inh 3, RecA splice inh 1.5 and Mtb betalactam 5.
CC(=O)Nc1ccc(NC(=O)CSc2nc3ccccc3nc2N2CCCCC2)cc1 was read as RecA splice inh -4.9 and Mtb betalactam 1.
COc1ccc(CC(=O)Nc2c(C(N)=O)oc3ccccc23)cc1OC was read as RecA splice inh -6.1 and Mtb betalactam 0.
Cc1cc(C)n2nc(C(=O)OCC(=O)NC3CCCCC3)nc2n1 was read as RecA splice inh -0.7 and Mtb betalactam 0.
COc1ccccc1NS(=O)(=O)c1cc(NC(=O)CC(C)(C)C)ccc1N1CCOCC1 was read as Mtb growth 7%, Arbovirus inh -6, RecA splice inh 0.9 and Mtb betalactam -8.
CC(C)N(CCCNC(=O)Cn1ncc2c([nH]c3ccccc32)c1=O)Cc1ccccc1 was read as RecA splice inh 1.0 and Mtb betalactam 4.
Screening Cc1ccc(C(=O)Nc2nc(-c3ccccn3)cs2)o1 returned Mtb growth 2.6µM*, RecA splice inh 1.4 and Mtb betalactam 88.
COc1ccccc1Nc1nc2nonc2nc1N1CCC(C)CC1 was read as Mtb growth 6%, YopH inh -28, Arbovirus inh -7, RecA splice inh -1.9 and Mtb betalactam 3.
`Cc1ccc(NC2=NCC(=O)N2Cc2ccc3c(c2)OCO3)cc1` gave YopH inh -25, Arbovirus inh 4, RecA splice inh -2.8 and Mtb betalactam -5.
Screening Cc1ccc(-n2c(SCC(=O)N/N=C/c3ccc(C)s3)nnc2-c2ccccc2)cc1 returned Mtb growth 7%, YopH inh -5, Arbovirus inh 8, RecA splice inh -0.5 and Mtb betalactam -7.
CC(=O)Nc1ccc(S(=O)(=O)N2CCN(c3nc(NC4CCCC4)c4ccccc4n3)CC2)cc1 was read as Mtb growth inconclusive, YopH inh -40, Arbovirus inh -30, RecA splice inh -1.5, Mtb betalactam 100 and Arbovirus inh repeat -23.
Screening O=C(Nc1ccc(F)cc1F)Nc1ccccc1C(=O)NCCN1CCNC1=O returned Mtb growth -7%, RecA splice inh -2.1 and Mtb betalactam -2.
For COc1ccccc1C(=O)NCC(=O)NNc1ncnc(N)c1[N+](=O)[O-] the results were Mtb growth 5%, Arbovirus inh 3, RecA splice inh 2.1 and Mtb betalactam -11.
Fc1ccc(CCNCc2cccc(Cl)c2)cc1 was read as Mtb growth 8%, YopH inh -28, Arbovirus inh 2, RecA splice inh 1.7 and Mtb betalactam -6.
COc1ccc(/C=N/NC(=O)c2c(-c3ccccc3)noc2C)cc1 was read as Mtb growth -3%, YopH inh -33, Arbovirus inh -3, RecA splice inh 1.2 and Mtb betalactam 4.
Screening COc1ccc(NC(=O)c2nc[nH]c2C(=O)N[C@@H](CC(C)C)C(=O)OC(C)(C)C)cc1 returned Mtb growth 19%, RecA splice inh -6.8 and Mtb betalactam 19.
`Cc1ccc(NC(=O)[C@H](NC(=O)[C@@H]2Cc3ccccc3CN2)c2ccccc2)cc1C` gave RecA splice inh 6.4 and Mtb betalactam 7.
For COc1cccc(CN(CC(=O)NCC2CCCO2)C(=O)CNS(=O)(=O)c2ccccc2)c1 (stereo not given) the results were Mtb growth -2%, YopH inh -18, RecA splice inh 6.4 and Mtb betalactam -9.
For O=C(Nc1ccc(Cl)c(Cl)c1)Nc1nnc(CSc2ccccc2)s1 the results were Mtb growth 4%, YopH inh -19, Arbovirus inh 0, RecA splice inh -0.7 and Mtb betalactam -1.
`Clc1ccc(-c2csc(NNC3=NCCCCC3)n2)cc1` gave Mtb growth 2%, YopH inh -29, Arbovirus inh -8, RecA splice inh 2.9 and Mtb betalactam -3.
For CCCn1c(NCc2ccccn2)nc2ccccc21 the results were Mtb growth 0%, YopH inh -1, Arbovirus inh 5, RecA splice inh -3.4 and Mtb betalactam 13.
`CC(=O)c1c(C)[nH]c(C(=O)OCC(=O)Nc2ccc3[nH]c(=O)[nH]c3c2)c1C` gave RecA splice inh -1.4 and Mtb betalactam 7.

Bioassay records: PubChem BioAssay, several laboratories
